# KCNQ2 pot: potentiators of rat KCNQ2 potassium channel | CHO-K1 KCNQ2, FluxOR thallium flux fluorescence; hits give high values | B-score at 10 µM | hit rate 0.54% among 310,000;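 active = fluorescence ratio B-score at least 3 SD of library B-scores, with initial fluorescence B-score within 3 SD, cut at about 5.3 in these data; same plate scores as AID 2156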;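 also: B-score of peak minus minimum over baseline fluorescence ratio after K+ and Tl+ stimulus; positive B-score means potentiation of KCNQ2 with more thallium influx and brighter signal; only the inactives scoring about 0 or higher are listed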
# Target sequence (O88943 whole entry, looked up): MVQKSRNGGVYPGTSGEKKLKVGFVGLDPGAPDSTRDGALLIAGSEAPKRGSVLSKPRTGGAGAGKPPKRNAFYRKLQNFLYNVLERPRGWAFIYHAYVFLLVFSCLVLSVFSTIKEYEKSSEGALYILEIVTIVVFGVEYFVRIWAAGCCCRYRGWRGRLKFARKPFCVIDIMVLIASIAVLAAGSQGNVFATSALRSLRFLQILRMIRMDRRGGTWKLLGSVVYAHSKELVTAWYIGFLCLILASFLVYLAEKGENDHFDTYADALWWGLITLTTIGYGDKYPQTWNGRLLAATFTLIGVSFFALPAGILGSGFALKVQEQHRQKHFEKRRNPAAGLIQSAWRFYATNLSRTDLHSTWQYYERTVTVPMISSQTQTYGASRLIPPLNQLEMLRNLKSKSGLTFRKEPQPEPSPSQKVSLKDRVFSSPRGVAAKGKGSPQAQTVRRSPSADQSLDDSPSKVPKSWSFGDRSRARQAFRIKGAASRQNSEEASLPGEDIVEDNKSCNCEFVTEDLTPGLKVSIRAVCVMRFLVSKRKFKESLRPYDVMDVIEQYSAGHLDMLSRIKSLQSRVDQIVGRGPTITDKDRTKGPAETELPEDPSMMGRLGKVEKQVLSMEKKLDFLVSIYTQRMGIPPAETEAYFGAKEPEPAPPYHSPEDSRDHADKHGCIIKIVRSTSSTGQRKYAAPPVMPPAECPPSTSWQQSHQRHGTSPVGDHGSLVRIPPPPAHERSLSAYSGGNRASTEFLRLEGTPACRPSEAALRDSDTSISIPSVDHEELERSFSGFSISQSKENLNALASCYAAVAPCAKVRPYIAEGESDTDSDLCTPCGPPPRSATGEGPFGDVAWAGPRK
# KCNQ2 pot baseline: also measured in KCNQ2 pot; calls as there; B-score; compound at 10 µM; measured here: initial fluorescence intensity artifact check;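 brightness before thallium and not channel activity; 0 = typical well and far values either way flag optical interference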
# * = called active by the depositor. Some of the compounds tested, so the mix of outcomes need not match the whole.
1	Cc1ccc(NC(=O)COc2ccc(-c3nnco3)cc2)cc1S(=O)(=O)N1CCOCC1
- KCNQ2 pot: 1.01
- KCNQ2 pot baseline: -0.12
2	CN1/C(=C/C=C(C#N)C#N)C=Cc2ccccc21
- KCNQ2 pot: 0.81
- KCNQ2 pot baseline: -0.08
3	Cc1nnc(SCC(=O)NCc2ccco2)n1-c1ccc(F)cc1
- KCNQ2 pot: 0.72
- KCNQ2 pot baseline: 0.05
4	CC(C)NC(=O)COC(=O)c1ccccc1C(=O)c1ccccc1
- KCNQ2 pot: 0.01
- KCNQ2 pot baseline: 1.47
5	Cc1ccc(C2=NNC(C(O)C(O)C(O)C(C)O)S2)cc1 (stereo not given)
- KCNQ2 pot: 0.31
- KCNQ2 pot baseline: 0.83
6	COc1ccc2oc(C(=O)OCC(=O)N3CCCC(C)C3)c(C)c2c1 (stereo not given)
- KCNQ2 pot: 0.23
- KCNQ2 pot baseline: 2.52
7	CC(=O)O/N=C(/c1nonc1N)N1CCN(c2ccc([N+](=O)[O-])cc2Cl)CC1
- KCNQ2 pot: 0.4
- KCNQ2 pot baseline: 0.24
8	Cc1nnc(-c2ccccc2)c(=O)n1/N=C/c1c(O)ccc2ccccc12
- KCNQ2 pot: 0.84
- KCNQ2 pot baseline: 0.28
9	Cc1cc(OCC(=O)NCC(O)c2ccccc2)c2c(C)cc(=O)oc2c1 (stereo not given)
- KCNQ2 pot: 1.47
- KCNQ2 pot baseline: -0.3
10	CCOC(=O)CC(=O)NC(C)(C)CCCCC(C)(C)NC(=O)CC(=O)OCC
- KCNQ2 pot: 1.43
- KCNQ2 pot baseline: -0.11
11	C(=N\Nc1ncnc2ccccc12)/c1ccccc1
- KCNQ2 pot: 1.28
- KCNQ2 pot baseline: -1.45
12	Cc1cc(C)c2c(=O)cc(C(=O)NCc3ccccc3)oc2c1
- KCNQ2 pot: 1.08
- KCNQ2 pot baseline: -0.41
13	CC(O)C(NS(=O)(=O)c1ccc(Cl)cc1)C(=O)OCC(=O)Nc1cccnc1Cl (stereo not given)
- KCNQ2 pot: 0.15
- KCNQ2 pot baseline: -0.92
14	NS(=O)(=O)c1ccc(-c2ccc(/C=C3\C(=O)Nc4ccccc43)o2)cc1
- KCNQ2 pot: 0.66
- KCNQ2 pot baseline: -0.86
15	Cc1cc(NC(=O)c2cc([N+](=O)[O-])cc([N+](=O)[O-])c2)n(-c2ccccc2)n1
- KCNQ2 pot: 1.17
- KCNQ2 pot baseline: 0.01
16	O=C(O)CNC(=O)c1cccc(C(F)(F)F)c1
- KCNQ2 pot: 0.23
- KCNQ2 pot baseline: -1.21
17	COc1ccc(C(=O)NCC(c2cccnc2)N2CCN(c3ccccc3)CC2)cc1OC (stereo not given)
- KCNQ2 pot: 0.93
- KCNQ2 pot baseline: -0.27
18	O=C(NNC(=O)c1ccc(Cl)cc1Cl)c1cnccn1
- KCNQ2 pot: 4.32
- KCNQ2 pot baseline: -0.24
19	Cn1ccnc1C(O)c1cc(C(C)(C)C)c(O)c(C(C)(C)C)c1 (stereo not given)
- KCNQ2 pot: 0.95
- KCNQ2 pot baseline: -0.45
20	O=C(COC(=O)C1CCN(c2ccc(C(F)(F)F)cn2)CC1)c1ccc(Cl)cc1
- KCNQ2 pot: 0.08
- KCNQ2 pot baseline: -0.89
21	COc1ccc(S(=O)(=O)c2cnc3ccccc3n2)cc1
- KCNQ2 pot: 0.25
- KCNQ2 pot baseline: -0.96
22	Cc1cc(-c2n[nH]c(=S)o2)c(C)n1-c1ccccc1
- KCNQ2 pot: 1.09
- KCNQ2 pot baseline: -0.87
23	O=C(O)C[C@H]1c2cc(F)ccc2S(=O)(=O)N1C1CCCC1
- KCNQ2 pot: 0.18
- KCNQ2 pot baseline: 0.7
24	CC1=C(C(N)=O)C(c2ccc(C)o2)C(C(N)=O)=C(C)N1
- KCNQ2 pot: 0.79
- KCNQ2 pot baseline: 2.39
25	COc1ccc(COc2cc(-c3cccc(OC)c3)nc3ccc(NC(=O)c4ccc(N(C)C)cc4)cc23)cc1
- KCNQ2 pot: 0.21
- KCNQ2 pot baseline: 0.81

26	Cn1nnnc1SCCNCc1ccccc1OCc1ccc(Cl)cc1
- KCNQ2 pot: 0.05
- KCNQ2 pot baseline: -0.95
27	COCCCNC(=O)/C=C/c1ccc(Cl)cc1
- KCNQ2 pot: 1.15
- KCNQ2 pot baseline: -0.2
28	COc1cc(/C=C2\C(=O)ON=C2c2ccccc2)cc(Br)c1O
- KCNQ2 pot: 1.96
- KCNQ2 pot baseline: 1.34
29	Cc1ccc(C(C)NC(=O)Cc2cccs2)cc1C (stereo not given)
- KCNQ2 pot: 1.2
- KCNQ2 pot baseline: 0
30	CCOC(=O)CSc1ncnc2c1sc1nc(N3CCOCC3)c3c(c12)CCCC3
- KCNQ2 pot: 0.05
- KCNQ2 pot baseline: 0.02
31	CCOCCCNC(=O)Cc1ccc(OC)c(OC)c1
- KCNQ2 pot: 1.63
- KCNQ2 pot baseline: -1.01
32	CC1(C)Cc2ccccc2-c2nnc(-c3ccc(O)cc3)n21
- KCNQ2 pot: 1.26
- KCNQ2 pot baseline: -1.3
33	COC(=O)c1ccccc1NC(=O)CSc1n[nH]c(-c2ccncc2)n1
- KCNQ2 pot: 0.84
- KCNQ2 pot baseline: -1.94
34	COc1ccc(CCNC(=O)c2c(C)nn(-c3ccccc3)c2Cl)cc1
- KCNQ2 pot: 0.22
- KCNQ2 pot baseline: -1.06
35	Oc1ccc(Cl)cc1C=Nc1ccc(Br)cc1
- KCNQ2 pot: 3.35
- KCNQ2 pot baseline: -0.4
36	O=C(CCCN1C(=O)C(c2ccccc2)Oc2cccnc21)Nc1ccccc1Cl (stereo not given)
- KCNQ2 pot: 0.1
- KCNQ2 pot baseline: 0.05
37	CC(=O)c1cccc(NC(=O)c2cc(Cl)sc2Cl)c1
- KCNQ2 pot: 1.15
- KCNQ2 pot baseline: 1.84
38	Cc1ccc(OCCC(=O)OCC(=O)Nc2cc(C)cc(C)c2)cc1
- KCNQ2 pot: 1.1
- KCNQ2 pot baseline: -0.01
39	CC(=O)N1CCN(C(=O)CCc2nc3sc4c(c3c(=O)[nH]2)CCCC4)CC1
- KCNQ2 pot: 0.03
- KCNQ2 pot baseline: -1.73
40	O=C1N=c2ccccc2=C1c1c(O)n(-c2cccc(F)c2)[nH]c1=O
- KCNQ2 pot: 0.04
- KCNQ2 pot baseline: -0.44
41	COc1ccc(N(C)C(=O)c2ccc3snnc3c2)cc1
- KCNQ2 pot: 0.23
- KCNQ2 pot baseline: -1.05
42	COc1ccc(/C=N/NC(=O)CNC(=O)c2cccs2)cc1
- KCNQ2 pot: 0.53
- KCNQ2 pot baseline: -2.58
43	CCCCN(CCCC)S(=O)(=O)c1ccc(NC(=O)CN2CCOCC2)cc1
- KCNQ2 pot: 0.36
- KCNQ2 pot baseline: 0.91
44	N#CCCn1c(SCC(=O)Nc2ccc(N3CCOCC3)cc2)nc2ccccc21
- KCNQ2 pot: 1.2
- KCNQ2 pot baseline: 1.23
45	Cn1c(=O)c2c(nc(SCCNS(=O)(=O)c3ccccc3)n2C)n(C)c1=O
- KCNQ2 pot: 1.32
- KCNQ2 pot baseline: -0.36
46	CCOc1ccc(CCNC(=O)c2[nH]c(C)c(C(C)=O)c2CC)cc1OCC
- KCNQ2 pot: 0.64
- KCNQ2 pot baseline: 0.51
47	Cc1nn(CCC#N)c2nc(-c3ccccc3)cc(C(F)(F)F)c12
- KCNQ2 pot: 2.07
- KCNQ2 pot baseline: -1.27
48	Cc1cc(NC(=O)CSc2ncn(-c3ccccc3)n2)no1
- KCNQ2 pot: 1.16
- KCNQ2 pot baseline: 1.19
49	COc1ccc(C(=O)NNC(=O)CSc2nnc(-c3ccc(O)cc3)n2C)cc1
- KCNQ2 pot: 0.36
- KCNQ2 pot baseline: -1.15
50	Cc1ccc(NC2=C(Cl)C(=O)OC2OC(=O)c2ccco2)c(C)c1 (stereo not given)
- KCNQ2 pot: 1.56
- KCNQ2 pot baseline: 0

# One compound at a time, from the list above. Screens in order: KCNQ2 pot | KCNQ2 pot baseline
# Entry for CCOc1ccc(CCNC(=O)c2[nH]c(C)c(C(C)=O)c2CC)cc1OCC = 0.64 | 0.51
# Entry for O=C1N=c2ccccc2=C1c1c(O)n(-c2cccc(F)c2)[nH]c1=O = 0.04 | -0.44
# Entry for Cn1nnnc1SCCNCc1ccccc1OCc1ccc(Cl)cc1 = 0.05 | -0.95

# More results:
51	O=C(O)c1cccc(S(=O)(=O)N2CCC(n3nnc4cc(C(F)(F)F)ccc43)CC2)c1
- KCNQ2 pot: 0.83
- KCNQ2 pot baseline: 0.01
52	C=CCNc1nc2c(c(=O)[nH]c(=O)n2C)n1CC(O)COc1ccc2ccccc2c1 (stereo not given)
- KCNQ2 pot: 1.54
- KCNQ2 pot baseline: -0.16
53	Cc1cc2ccccc2cc(C)c1=O
- KCNQ2 pot: 1.32
- KCNQ2 pot baseline: -0.07
54	O=C(CSc1nc2ccccc2c(=O)n1Cc1ccccc1)Nc1ccc(Br)cc1C(=O)O
- KCNQ2 pot: 3.3
- KCNQ2 pot baseline: -0.4
55	COc1ccc(C(=O)NCC2CCCO2)cc1 (stereo not given)
- KCNQ2 pot: 1.2
- KCNQ2 pot baseline: -0.72
56	CCCS(=O)(=O)c1c(S(=O)(=O)CCC)c2c(C)cccn2c1C(N)=O
- KCNQ2 pot: 2.03
- KCNQ2 pot baseline: -0.35
57	CC(C)c1ccc(C2/C(=C(/O)c3ccc(F)cc3)C(=O)C(=O)N2CCCN2CCOCC2)cc1 (stereo not given)
- KCNQ2 pot: 0.39
- KCNQ2 pot baseline: 0.55

# 6 entries already listed, sorted by the number in KCNQ2 pot baseline, ascending.
54	O=C(CSc1nc2ccccc2c(=O)n1Cc1ccccc1)Nc1ccc(Br)cc1C(=O)O
- KCNQ2 pot: 3.3
- KCNQ2 pot baseline: -0.4
56	CCCS(=O)(=O)c1c(S(=O)(=O)CCC)c2c(C)cccn2c1C(N)=O
- KCNQ2 pot: 2.03
- KCNQ2 pot baseline: -0.35
52	C=CCNc1nc2c(c(=O)[nH]c(=O)n2C)n1CC(O)COc1ccc2ccccc2c1 (stereo not given)
- KCNQ2 pot: 1.54
- KCNQ2 pot baseline: -0.16
53	Cc1cc2ccccc2cc(C)c1=O
- KCNQ2 pot: 1.32
- KCNQ2 pot baseline: -0.07
51	O=C(O)c1cccc(S(=O)(=O)N2CCC(n3nnc4cc(C(F)(F)F)ccc43)CC2)c1
- KCNQ2 pot: 0.83
- KCNQ2 pot baseline: 0.01
57	CC(C)c1ccc(C2/C(=C(/O)c3ccc(F)cc3)C(=O)C(=O)N2CCCN2CCOCC2)cc1 (stereo not given)
- KCNQ2 pot: 0.39
- KCNQ2 pot baseline: 0.55

# Entries listed so far that contain a nitro group on carbon:
7	CC(=O)O/N=C(/c1nonc1N)N1CCN(c2ccc([N+](=O)[O-])cc2Cl)CC1
- KCNQ2 pot: 0.4
- KCNQ2 pot baseline: 0.24
15	Cc1cc(NC(=O)c2cc([N+](=O)[O-])cc([N+](=O)[O-])c2)n(-c2ccccc2)n1
- KCNQ2 pot: 1.17
- KCNQ2 pot baseline: 0.01

# Source: PubChem
